Screening data: PubChem BioAssay, National Center for Advancing Translational Sciences (NCATS)
D2 agonist: Beta-Arrestin HTS for Positive Allosteric Modulators of the Human D2 Dopamine Receptor: Agonists | activation, % (concentration not given with the values) | DiscoveRx PathHunter D2 beta-arrestin, luminescence, 90 min; 100% = 57 uM dopamine signal | AID 624465, 2012 | 360,000 tested, 0.084% active | D(2) dopamine receptor (Homo sapiens), P14416; in the data active = activation above about 40%; inconclusive = about 15% to 40%; inactive = below about 15%; also: compound concentration not given in the record; the text of the record calls up to 30% inactive
Target sequence (P14416 whole entry, looked up): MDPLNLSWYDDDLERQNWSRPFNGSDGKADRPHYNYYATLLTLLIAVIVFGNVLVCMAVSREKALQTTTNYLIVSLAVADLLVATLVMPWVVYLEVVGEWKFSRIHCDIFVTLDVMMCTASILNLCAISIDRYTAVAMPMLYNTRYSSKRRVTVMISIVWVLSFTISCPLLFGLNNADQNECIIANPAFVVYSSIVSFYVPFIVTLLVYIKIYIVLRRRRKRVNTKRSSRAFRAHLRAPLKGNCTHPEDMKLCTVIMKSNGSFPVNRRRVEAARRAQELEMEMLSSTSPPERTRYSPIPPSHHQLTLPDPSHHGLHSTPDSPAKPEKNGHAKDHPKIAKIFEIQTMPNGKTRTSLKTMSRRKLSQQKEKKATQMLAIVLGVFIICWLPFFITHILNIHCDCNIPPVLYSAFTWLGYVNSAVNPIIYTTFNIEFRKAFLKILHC
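DiscoveRx PathHunter D2 beta-arrestin cells (2,100/well) attached overnight, then compound-stimulated 90 min at 37 C in HBSS/10 mM HEPES/0.1% Tween-20 buffer; beta-galactosidase complementation read by luminescence after 1 h at ambient temperature. Dopamine 57 uM final (EC100) as control.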
ClpP mod: qHTS Assay for Activators of ClpP; 340,000 tested, 1.9% active; ATP-dependent Clp protease proteolytic subunit (Bacillus subtilis (strain 168)), P80244; Potency, µM (series often up to 57.5 µM), without a hit: at the highest dose activity change, negative = active; purified B. subtilis ClpP, FRET peptide cleavage, 20 min; active = well fitted falling curve with a large enough effect; inconclusive = small, poorly fitted or top-dose-only effect; inactive = no such curve, though single readings can be large or run the other way; also: potency is read from the fitted curve at half-maximal effect; the source files actives as falling curves though it sought activators and does not explain the sign; nearly all actives have a fitted effect of over 65% in size; many hits overshoot -100%
Target sequence (P80244 whole entry, looked up): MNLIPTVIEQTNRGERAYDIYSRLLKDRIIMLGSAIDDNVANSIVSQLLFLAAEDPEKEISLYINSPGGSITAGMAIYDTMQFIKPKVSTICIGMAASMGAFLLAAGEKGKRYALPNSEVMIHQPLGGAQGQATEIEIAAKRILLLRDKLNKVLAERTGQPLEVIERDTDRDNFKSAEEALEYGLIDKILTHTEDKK
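ClpP 10 microg/mL final, pH 8 Tris/KCl buffer with BSA, glycerol, Tween-20; compound pinned in; FRET-FV substrate; RT 20 min; Ex320/Em430; ΔFRET vs ADEP 5.8 microM, DMSO, no enzyme.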
Sfp inh: qHTS Assay for Inhibitors of Bacillus subtilis Sfp phosphopantetheinyl transferase (PPTase); 310,000 tested, 3.5% active; AID 1490, 2009; Biochemical Sfp PPTase activity, qHTS; 4'-phosphopantetheinyl transferase ffp (Bacillus subtilis), Q9F4F7; Potency, µM, for the others: max response, negative = inhibition, hits mostly inhibitors; active = well fitted inhibition curve with a large enough effect; inconclusive = small, poorly fitted or top-dose-only effect, or another doubt; inactive = no such curve, though single readings can be large or run the other way;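 also: the enzyme is Sfp with the accession as filed and its product quenches rhodamine fluorescence; potency is read from the fitted curve at half-maximal effect; 0% = enzyme reaction without inhibitor and -100% = no enzyme wells; top concentration of the series not given in the record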
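Compounds were incubated with enzyme (final 15 nM) for 15 min at room temperature before substrate addition started the reaction. Fluorescence at 525 nm excitation, 598 nm emission was recorded immediately and after 30 minutes.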
PINK1 expr mod: A Quantitative High throughput Screen to Identify Chemical Modulators of PINK1 Expression | Potency, µM (series often up to 76.6 µM), for the others: at the top dose activation (PINK1 increase), most hits filed as activators | 410,000 tested, 0.2% active | AID 624263, 2012 | PINK1 immunofluorescence, high-content cytometry, 24 h; active = well fitted activation curve with a large enough effect; inconclusive = small, poorly fitted or top-dose-only effect; inactive = flat fitted curve, though single readings scatter; cell line not stated here;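 also: potency is read from the fitted curve at half-maximal effect; % of control where 0% means no effect; nearly all actives have a fitted effect of over 65% in size; a mitochondrial uncoupler was the plate control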
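Fluorescence from anti-PINK1 antibody, together with nuclear and cell stains, was scanned on a laser-scanning cytometer. Before staining, stable-line cells were incubated 24 hours with compounds at 5 concentrations; primary antibody 12 h at 10 degrees C.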
gsp antag: qHTS for Antagonists of gsp, the Etiologic Mutation Responsible for Fibrous Dysplasia/McCune-Albright Syndrome: qHTS; gsp-mutant cells, cAMP HTRF, 30 min; control for the full effect not named in the record; Potency, µM (titrated, usually from 76.9 µM), for inactives: top-dose activity change, negative = inhibition, actives largely listed as inhibitors; 340,000 tested, 0.4% active; active = falling curve of any shape with a large fitted effect; inconclusive = falling curve, mostly with a smaller effect; inactive = flat or rising curve; cell line not stated here;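 also: intracellular cAMP measured with PDE inhibitor Ro 20-1724 present during compound exposure; potency is read from the fitted curve at half-maximal effect; % is scaled to controls: 0 for no effect and ±100 for the full control effect; nearly all actives have a fitted effect of over 65% in size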
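G418-selected cells were plated in DMEM/10% FBS for 16-24 h at 37C, then treated with compounds plus the PDE inhibitor […] (300 uM solution added) for 30 min at 37C. Intracellular cAMP was measured by HTRF after 30 min lysis at room temperature.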
Menin-MLL FL inh: qHTS Assay for Inhibitors Targeting the Menin-MLL Interaction in MLL Related Leukemias: Competition With Fluorescein Labeled MLL-derived Peptide; Fluorescence polarization, fluorescein-MLL peptide displacement from menin; FP activity change, % at 61.4 µM; 290,000 tested, under 10 active; inconclusive = falling polarisation curve, or a change in total fluorescence; inactive = total fluorescence flat and polarisation flat or rising; no compound was filed as active; the % refers to the polarisation; negative = inhibition;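 also: % of control where 0% means no effect; inhibitors lower the polarisation; unlabelled MLL peptide was the positive control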
gsp agonist: qHTS for Agonist of gsp, the Etiologic Mutation Responsible for Fibrous Dysplasia/McCune-Albright Syndrome: qHTS; gsp mutant cells, cAMP HTRF, 30 min; control for the full effect not named in the record; Potency, µM (highest dose often 76.9 µM), for inactives: at the highest dose activation (cAMP increase), usual class: activators; 340,000 tested, 0.13% active; AID 624287, 2012; active = well fitted activation curve with a large enough effect; inconclusive = small, poorly fitted or top-dose-only effect, or another doubt; inactive = no such curve, though single readings can be large or run the other way; cell line not stated here;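 also: phosphodiesterase inhibitor Ro 20-1724 added with compounds to block cAMP breakdown; potency is read from the fitted curve at half-maximal effect; nearly all actives have a fitted effect of over 60% in size; about a fifth of the inactives were tested at one dose only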
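Cells in DMEM/10% FBS with G418 were pretreated with compounds in DMSO plus […] (300 uM stock) for 30 min at 37C. cAMP was measured by HTRF (cAMP-d2 plus anti-cAMP antibody-K) after 30 min at room temperature.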
* hit, by the source's call; ? = inconclusive; nt = no result given; & = joins results of further samples; [ ] = dose if it differs, or a comment. Not a hit list; about 5.1% have a hit in one of these screens.

SMILES	D2 agonist	ClpP mod	Sfp inh	PINK1 expr mod	gsp antag	Menin-MLL FL inh	gsp agonist
O=C(c1ccccc1)N1CCCC(c2ccc(Cl)cc2)=N1	-1.9	0.1%	79.4µM*	nt	4.1%	1.4	-46.3%[inhibitor]
c1ccc(-c2csc(-n3cnnn3)n2)cc1	-2.4	-10.3%	-5.1%	-1.3%	11.4%	-1.0	-11.5%
Cn1cc(S(=O)(=O)N2CCCC2)cc1C(=O)NCCc1ccccc1	-5.3	-1.2%	5.3%	-0.7%	2.8%	0.4	-1.9%
Cc1nnsc1C(=O)Nc1ccccc1Cl	-1.2	-2.4%	?	9.5%[38.3 µM]	6.9%	-4.3	18.4%
CSc1nnc(C)c(=O)n1COC(=O)COc1ccc(F)cc1	-6.4	nt	13.0%	-0.6%	7.5%	-1.0	4.4%
CC(C)Cn1c(N)c(C(=O)CCl)c(=O)n(C)c1=O	1.1	1.8%	13.1%	-0.2%	-7.3%	-1.1	nt
O=C(c1ccc(-c2ccc(Cl)cc2)o1)N1CCN(c2ccc([N+](=O)[O-])cc2Cl)CC1	-1.5	-2.0%	-5.9%	?	-22.6%	0.1	-1.2%
CN(C)c1ncnc2c1ncn2[C@H]1CN(Cc2cccs2)C[C@@H](CO)O1	-3.6	-1.0%	nt	2.3%	nt	nt	nt
COc1cc(/C=C2/C(=O)N(c3cccc(Br)c3)N=C2C)cc(OC)c1O	-11.5	-3.6%	?	1.1%	-17.2%	?	-51.0%
COc1ccc(CN(CC(=O)NCCc2ccccc2)C(=O)CCC(=O)Nc2cc(C)ccn2)cc1	0.4	nt	2.0%	0.5%	-10.7%	nt	7.1%[15.4 µM]
Cc1cc(/C=C2\SC(=O)NC2=O)c(C)n1-c1ccc(N2CCOCC2)cc1	-8.0	nt	-12.3%	14.4%	-28.4%	1.2	27.7%
Cc1ccc(N(C(=O)c2ccc(CN3CCOCC3)o2)C(C(=O)NCCC(C)C)c2cccs2)c(C)c1 (centres undefined)	0.9	-11.1%	-14.0%	0.8%	9.4%	-0.7	8.8%
Cc1cc(O)c(C(C)C)cc1N=Cc1ccccc1[N+](=O)[O-]	?	nt	nt	3.1%	-29.2%	nt	1.3%
Cc1ccc(OCCN2CCN(C)CC2)c([N+](=O)[O-])c1	-5.1	1.2%	?	-0.7%	7.8%	nt	?
CCOc1ccccc1Nc1ccc(C(=O)O)cc1NC(C)=O	-2.8	-2.2%	56.2µM*	0.7%	-21.2%[15.4 µM]	0.6	-6.2%
COc1ccc(-n2nnnc2C(c2ccnc3ccccc23)N2CCN(C/C=C/c3ccccc3)CC2)cc1 (centres undefined)	-4.0	-8.8%	nt	1.5%	nt	nt	nt
O=C(O)COc1ccc2oc3ccccc3c2c1	-2.4	nt	22.5%	2.6%	-0.2%	-1.1	-11.6%[15.4 µM]
COc1ccc(C(=O)OCCCc2cc3ccccc3c(=O)o2)cc1	-0.9	-16.4%	nt	1.5%	-18.8%	nt	-6.7%
CCOC(=O)C1=C(CN2CCSCC2)NC(=O)NC1c1ccc2c(c1)OCO2 (centres undefined)	-2.5	nt	7.9%	-1.0%	0.2%	-2.6	-10.0%[15.4 µM]
CCOC(=O)CSc1nc(C)c2cccc(C)c2n1	-1.3	nt	8.3%	1.5%	-21.0%	2.6	-23.2%[15.4 µM]
CCc1ccc(NC(=O)CSc2nc(N)c(NC(=O)c3ccc(F)c(F)c3)c(=O)[nH]2)cc1	-4.0	0.9%	7.2%	-0.3%	11.0%	0.3	-41.7%[inhibitor]
COCCn1c(=O)c(C)nc2cnc(Oc3cccc(Cl)c3)nc21	nt	nt	11.8%	0.7%	nt	13.1	nt
CCc1c(C)nc2cc(-c3ccc(OC)c(OC)c3)nn2c1N1CCCC1	0.8	?	6.31µM*	nt	8.4%	6.2	-23.3%
O=C(CCn1c(=O)c2ccccc2n(Cc2cc(=O)n3ccccc3n2)c1=O)NCc1ccco1	-2.4	?	-3.0%	?	9.8%	0.0	-76.4%[inhibitor]
COc1ccc(S(=O)(=O)N(C)CC(=O)NCCN2CCOCC2)cc1C	-1.4	nt	14.4%	4.0%	9.9%	2.7	-0.5%[15.4 µM]

The results go on:
SMILES	D2 agonist	ClpP mod	Sfp inh	PINK1 expr mod	gsp antag	Menin-MLL FL inh	gsp agonist
OC(C#Cc1ccccc1)(c1ccccc1)c1ccccc1	-4.5	nt	nt	?	-2.6%	nt	17.4%
O=C(CN1CCCCCC1)Nc1ccc(S(=O)(=O)N2CCCCC2)cc1	-2.2	nt	8.3%	9.5%	10.9%	0.8	20.3%
CC(=O)Nc1ccc(S(=O)(=O)n2cnc3cc(C)c(C)cc32)cc1	-2.5	-1.4%	-12.1%	0.3%	2.8%	-0.6	-4.6%[15.4 µM]
Cc1nn(C(C)C(=O)NCc2ccco2)c(=O)c2nn(-c3ccccc3)c(C)c12 (centres undefined)	-13.7	-0.8%&-5.4%	3.5%	-0.7%&-1.6%	5.9%	0.4	26.3%
CCOc1ccc(NC(=O)CC2C(=O)N(CC)C(=S)N2CCN2CCOCC2)cc1 (centres undefined)	1.0	nt	10.5%	5.6%	-12.2%	-0.4	9.1%[15.4 µM]
CCCCCCCCCCOC(=O)NC1CCS(=O)(=O)C1 (centres undefined)	-1.1	nt	-0.4%	4.9%	nt	0.8	5.2%[15.4 µM]
Cc1cccc(C(=O)NCCCN(C)CCCNC(=O)c2cccc(C)c2)c1	-3.9	2.0%	24.9%	-0.5%	3.1%	5.8	23.1%
O=C(NCc1ccc2c(c1)OCO2)c1c(O)c2cccc3c2n(c1=O)CCC3	-0.4	-5.4%	-6.9%	-0.5%	15.7%	-0.7	7.4%
CC(C)NCC(O)COC1CCC(C(C)(C)C)CC1 (centres undefined)	2.0	nt	0.3%	4.7%	2.0%	-6.5	-8.6%[15.4 µM]
Cc1onc(-c2ccccc2)c1C(=O)N1CCCN2C(=O)c3ccccc3C21 (centres undefined)	-3.2	-0.9%	10.4%	1.4%	2.8%	3.3	0.0%[15.4 µM]
CC(=O)Nc1ccc(S(=O)(=O)N2CCN(c3cc(C)ccc3C)CC2)cc1	3.0	-0.5%	2.4%	-0.1%	-20.6%	2.2	-11.7%
Cc1nn(-c2ccccc2)c(C)c1NC(=O)Cc1cccs1	-2.5	2.5%	-8.8%	5.3%	1.1%	-1.2	-17.6%
C[C@@H]1CC[C@]2(O[C@H](CCO)C[C@H](O)[C@H]2O)O1	1.0	1.4%	nt	1.1%	11.5%	nt	nt
O=C(Nc1ccc(N2CCOCC2)c(Cl)c1)c1ccco1	2.8	-14.6%	4.2%	-1.7%	-4.7%	0.0	-14.2%
CC(=O)N1CC2(C)CN(C(C)=O)CC(C)(C1)C2	-3.6	0.7%	19.2%	1.4%	21.6%	4.1	-32.4%[inhibitor]
O=C(CSCC(=O)Nc1cccc2ccccc12)Nc1cccc2ccccc12	1.1	-4.6%	8.2%	4.8%	-1.2%	3.8	2.5%
O=C(COC(=O)Cc1ccc(F)cc1)Nc1cc(S(=O)(=O)N2CCOCC2)ccc1N1CCCC1	1.3	-1.0%	11.4%	-1.2%	2.4%	-2.1	-19.9%
c1ccc(-n2ncc3c(NCCCN4CCOCC4)ncnc32)cc1	0.2	?	-11.2%	nt	13.3%	-1.0	16.7%
CN1CCC(N(C)C(=O)c2ccc(Cl)c(S(=O)(=O)N(C)c3ccc(Cl)cc3)c2)CC1	0.8	0.9%	nt	9.5%	-13.6%	nt	-0.4%
CCc1ccc(NC(=O)CCCn2nc(CC)n3c(cc4occc43)c2=O)cc1	-2.0	-3.6%	5.3%	-1.1%	-10.7%	8.9	-8.2%
OC(c1ccccc1)c1nc2ccccc2[nH]1 (centres undefined)	2.8	15.8µM*	3.7%	0.4%	4.4%	-0.8	-4.7%[15.4 µM]
CCCCn1nnc(NC(=O)C(c2ccccc2)c2ccccc2)n1	-1.4	-3.1%	-3.1%	0.6%	5.1%	10.1	-4.8%
N#Cc1nc(COc2ccc(-c3ccccc3)cc2)oc1NCCCN1CCOCC1	-2.5	0.9%	-28.1%	0.2%	2.2%	1.4	0.0%
COc1ccc(C(=O)Nc2ccc3oc(Cc4ccc(Cl)cc4)nc3c2)cc1OC	4.9	-2.0%	?	0.7%	-21.0%	4.8	-5.7%
O=C(c1ccccc1)N1CCCC(C(=O)N2CCN(c3ccccc3)CC2)C1 (centres undefined)	-2.3	1.0%	21.3%	-1.1%	-12.5%	3.2	3.1%[15.4 µM]

(further entries)
SMILES	D2 agonist	ClpP mod	Sfp inh	PINK1 expr mod	gsp antag	Menin-MLL FL inh	gsp agonist
CCCN(Cc1ccccc1)C(=S)Nc1ccc(OCC)cc1	-1.4	nt	22.2%	1.3%	-23.1%	0.5	-14.5%[15.4 µM]
O=C(Nc1ccccc1)OCCNC1CCCCC1	0.9	0.7%	nt	-1.5%	8.6%	nt	-9.7%
O=c1cc(CSc2nnnn2-c2ccccc2)nc2sccn12	2.4	nt	8.7%	2.9%	-6.3%	-9.7	-9.5%[15.4 µM]
COc1ccc(C2C(C#N)=C(N)OC3=C2C(=O)CC(C)(C)C3)c([N+](=O)[O-])c1OC (centres undefined)	-0.6	-8.9%	1.0%	0.1%	2.1%	6.3	14.9%
Cc1ccc(C2=NOC(C)(c3nnc(Cc4ccccc4)o3)C2)cc1 (centres undefined)	-2.7	1.5%	nt	0.3%	2.5%	nt	nt
O=C(CCn1nc(-c2ccccc2)ccc1=O)N1CCCC1	-4.3	0.5%	7.2%	1.7%	13.8%	0.2	5.8%[15.4 µM]
COC(=O)c1ccc(NC(=O)CNS(=O)(=O)c2cccs2)cc1	-3.0	1.0%	11.8%	9.6%[38.3 µM]	8.2%	6.7	-12.4%
